Source: PubChem (National Center for Advancing Translational Sciences (NCATS))
MARV entry inh – blocks Marburg virus binding to or entry into cells; Marburg virus pseudotyped entry inhibition, cell reporter; control for the full effect not named in the record; about a third of the inactives were read at about 46 µM; Potency, µM (titrated, usually from 37.8 µM), for inactives: top-dose activity change, negative = inhibition, most hits filed as inhibitors; 300,000 tested, 1.8% active; active = well fitted inhibition curve with a large enough effect; inconclusive = small, poorly fitted or top-dose-only effect, or effect the other way; inactive = flat fitted curve, though single readings scatter; tested in HEK293 cells; about a fifth of its hits are not listed in these tables; further: on the % scale 0 is the no-effect control and ±100 the full control effect; luciferase read-out
LASV entry inh – blocks Lassa virus binding to or entry into cells | Lassa virus pseudotype entry inhibition, cell reporter; control for the full effect not named in the record | Potency, µM (series often up to 37.9 µM), without a hit: top-dose activity change, negative = inhibition, actives largely listed as inhibitors | 300,000 tested, 1.2% active | AID 540256; active means well fitted inhibition curve with a large enough effect; inconclusive means small, poorly fitted or top-dose-only effect, or effect the other way; inactive means flat fitted curve, though single readings scatter; tested in HEK293 cells; further: on the % scale 0 is the no-effect control and ±100 the full control effect; nearly all actives have a fitted effect of over 50% in size; luciferase read-out
2A StopGo – lowers the luciferase signal of an FMDV 2A StopGo reporter; human cells with a luciferase reporter of 2A StopGo recoding; control for the full effect not named in the record; Potency, µM (top dose mostly 57.9 µM), without a hit: at the highest dose signal change, negative = less light; 410,000 tested, 1.2% active; active = well fitted falling curve with a large enough effect; inconclusive = small, poorly fitted or top-dose-only effect; inactive = no such curve, though single readings can be large or run the other way; tested in HEK293T cells; further: on the % scale 0 is the no-effect control and ±100 the full control effect; nearly all actives have a fitted effect of over 45% in size; luciferase light after 4 h
RE007 growth inh – less growth of the S. pombe RE007 Vpr strain. S. pombe RE007 Vpr strain, BacTiter-Glo ATP luminescence, 24 h; control for the full effect not named in the record. Potency, µM (doses to about 92.2 µM), inactives show at the top dose activity change, negative = less growth. 360,000 tested, 0.21% active. AID 651644; active = well fitted falling curve with a large enough effect; inconclusive = small, poorly fitted or top-dose-only effect; inactive = no such curve, though single readings can be large or run the other way;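 further: on the % scale 0 is the no-effect control and ±100 the full control effect; nearly all actives have a fitted effect of over 50% in size; the assay follows cell death caused by Vpr and the record does not say whether a fall means rescue or toxicity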
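Fission yeast RE007 carrying one integrated HIV-1 vpr copy, seeded at OD 0.01 in PMG+AL medium with 23 nL pinned compound. Grown 24 h at 30 degrees; viability read by BacTiter-Glo luminescence after 5 min.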
Cruzain Triton – cruzain (T. cruzi) inhibition with detergent; AID 1478; 200,000 tested, 0.43% active; P25779; Potency, µM, without a hit: max response, negative = inhibition, usual class: inhibitors; purified cruzain, Z-FR-AMC fluorescence, 0.01% Triton; active means well fitted curve in the direction sought with a large enough effect; inconclusive means small, poorly fitted or top-dose-only effect, or another doubt; inactive means no such curve, though single readings can be large; an effect the other way counts as inactive or inconclusive;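 further: plate controls were neutral wells for no effect and buffer without enzyme for full effect; nearly all actives have a fitted effect of over 40% in size; top concentration of the series not given in the record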
Target sequence (P25779 123-467 limits assumed): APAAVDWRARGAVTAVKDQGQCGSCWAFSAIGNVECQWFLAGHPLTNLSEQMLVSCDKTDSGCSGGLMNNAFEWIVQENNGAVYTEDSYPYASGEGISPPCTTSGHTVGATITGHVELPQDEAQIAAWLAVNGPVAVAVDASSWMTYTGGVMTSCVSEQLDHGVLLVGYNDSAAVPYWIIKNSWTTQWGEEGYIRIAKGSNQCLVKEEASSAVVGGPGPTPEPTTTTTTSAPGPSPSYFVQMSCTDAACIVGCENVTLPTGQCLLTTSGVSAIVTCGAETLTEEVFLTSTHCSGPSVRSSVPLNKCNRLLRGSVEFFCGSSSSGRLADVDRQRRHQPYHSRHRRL
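Detergent-containing run (0.01% Triton X-100) in acetate buffer pH 5.5 with 5 mM DTT: enzyme at 1.5 nM final, 15 min compound preincubation at room temperature, then 2 uM Z-FR-AMC substrate. Activity taken as 60 s fluorescence increase at 360/450 nm.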
SARS PLpro yeast – SARS-CoV PLP inhibition in yeast; Potency, µM (doses to about 32.9 µM), inactives show top-dose activity, positive = growth rescue; AID 485353; S. cerevisiae expressing SARS-CoV PLpro, growth rescue; control for the full effect not named in the record; 330,000 tested, 0.19% active; further: 0% is about no effect; nearly all actives have a fitted effect of over 55% in size; growth read by luminescence after 48 h
NS1 inh – influenza NS1 inhibition. S. cerevisiae slowed by influenza A NS1, growth recovery by OD600. 270,000 tested, 0.4% active. Potency, µM (top dose mostly 46.1 µM), for inactives: top-dose activity, positive = more growth; further: actives are rising curves; nearly all actives have a fitted effect of over 50% in size
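In this qHTS, NS1 from influenza A is expressed in budding yeast, where it slows growth. Cells are switched from glucose to 2% galactose medium (pH 6.0, -URA), treated with compound, and growth recovery is read at OD600.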
Cruzain noTriton – cruzain (T. cruzi) inhibition without detergent | purified cruzain, Z-FR-AMC fluorescence, no detergent | 200,000 tested, 2.3% active | Potency, µM, for the others: max response, negative = inhibition, hits mostly inhibitors; active means well fitted curve in the direction sought with a large enough effect; inconclusive means small, poorly fitted or top-dose-only effect, or another doubt; inactive means no such curve, though single readings can be large; an effect the other way counts as inactive or inconclusive;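 further: plate controls were enzyme without inhibitor for no effect and buffer without enzyme for full effect; nearly all actives have a fitted effect of over 40% in size; top concentration of the series not given in the record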
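Purified cruzain at 1.5 nM, pre-incubated 15 min with compound at room temperature in 100 mM sodium acetate pH 5.5, 5 mM DTT, 0.00005% Triton X-100. Reaction started with 2 uM Z-FR-AMC; AMC fluorescence increase over 60 s gives rate.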
Active calls of the source: *; & = joins results of further samples; [ ] = another dose, or the depositor's remark. Unless noted, the call rests on the fitted dose curve; in most records, active means well fitted rising curve with a large enough effect; inconclusive means small, poorly fitted or top-dose-only effect; inactive means no such curve, though single readings can be large or run the other way. Potency means the concentration at half of the fitted maximal effect.

Results for COC(=O)c1ccc(CNS(=O)(=O)c2ccc3ccccc3c2)cc1 ?
MARV entry inh: -23%[46.1 µM]; LASV entry inh: 17%; 2A StopGo: 35%[activator]; RE007 growth inh: 1%; SARS PLpro yeast: -12%; NS1 inh: -1%

How did CC(=O)c1c(N2CCOCC2)nc(=S)n(-c2ccccc2)c1C do in these assays?
MARV entry inh: 0%; LASV entry inh: 0%; RE007 growth inh: -17%; Cruzain Triton: 0.6%; SARS PLpro yeast: -5%; NS1 inh: 3%; Cruzain noTriton: 1%

Results for Cc1cccc(N(CC(=O)Nc2ccccc2F)S(C)(=O)=O)c1 ?
MARV entry inh: 19%; LASV entry inh: 5%; 2A StopGo: 19%; RE007 growth inh: 2%; Cruzain Triton: 6.3%; SARS PLpro yeast: 4%; NS1 inh: 2%; Cruzain noTriton: -1%

Results for COc1cc(NC(=O)c2cnn(-c3cccc(F)c3)c2C2CCNCC2)cc(OC)c1OC ?
LASV entry inh: inconclusive; 2A StopGo: -14%; Cruzain Triton: -1.1%; Cruzain noTriton: -9%

How did NC(=O)C1(N2CCCCC2)CCN(CC(=O)Nc2ccc(Oc3ccccc3)cc2)CC1 do in these assays?
MARV entry inh: -27%; LASV entry inh: -14%; 2A StopGo: inconclusive; RE007 growth inh: -4%; Cruzain Triton: 3.0%; NS1 inh: -16%; Cruzain noTriton: -6%

How did CS(=O)(=O)N1CCN(c2ccccc2NC(=O)c2ccco2)CC1 do in these assays?
MARV entry inh: 8%; LASV entry inh: 2%; RE007 growth inh: 1%; Cruzain Triton: 7.3%; SARS PLpro yeast: -5%; NS1 inh: -13%; Cruzain noTriton: -5%

How did COc1ccc(N2CC3=C(C2=O)C(c2ccc(O)c(OC)c2)NC(=O)N3C)cc1 (stereo not drawn) do in these assays?
MARV entry inh: 3%[46.1 µM]; LASV entry inh: 3%[46.1 µM]; 2A StopGo: -21%; Cruzain Triton: -2.3%; Cruzain noTriton: -19%

Results for CCN(CC)C(C)C(=O)NCC1(c2ccccc2)CCOCC1 (stereo not drawn) ?
MARV entry inh: -10%; LASV entry inh: inconclusive; 2A StopGo: 7%; RE007 growth inh: -4%; Cruzain Triton: 0.7%; SARS PLpro yeast: 11%; NS1 inh: 5%; Cruzain noTriton: 6%

Results for O=C(Nc1ccc(-c2cn3ccccc3n2)cc1)c1ccc(Cl)cc1 ?
MARV entry inh: 1%; LASV entry inh: 1%; 2A StopGo: 10%; RE007 growth inh: -7%; Cruzain Triton: -2.9%; SARS PLpro yeast: -3%; NS1 inh: 9%; Cruzain noTriton: 13µM*

How did CNC(=S)N1N=C(c2ccccc2)CC1c1ccc(Br)cc1 (stereo not drawn) do in these assays?
MARV entry inh: inconclusive; LASV entry inh: 17%; 2A StopGo: 10%; RE007 growth inh: 16%; Cruzain Triton: -0.5%; SARS PLpro yeast: -1%; NS1 inh: -45%; Cruzain noTriton: inconclusive

Results for CSc1ccc(Cl)c(C(=O)N(C)CC(=O)Nc2ccc(N3CCOCC3)cc2)c1 ?
MARV entry inh: inconclusive; LASV entry inh: -26%; 2A StopGo: -4%; RE007 growth inh: 3%; SARS PLpro yeast: 1%

Results for Cc1cc(C)c2ccc(C(=O)O)nc2c1O ?
MARV entry inh: 8%; LASV entry inh: 16%; 2A StopGo: -24%; RE007 growth inh: 12%; Cruzain Triton: 5.6%; SARS PLpro yeast: -8%; NS1 inh: 2%; Cruzain noTriton: 8%

How did CC(=O)NC1CC2CCCC(C1)N2S(=O)(=O)c1cccc(F)c1 (stereo not drawn) do in these assays?
MARV entry inh: 3%; LASV entry inh: -5%; 2A StopGo: -19%; RE007 growth inh: -8%; Cruzain Triton: -1.0%; SARS PLpro yeast: -6%; NS1 inh: -1%; Cruzain noTriton: inconclusive

How did O=C(CSC(=S)N1CCCC1)NCC(=O)Nc1ccc(F)c(F)c1 do in these assays?
MARV entry inh: 1%; LASV entry inh: 14%; 2A StopGo: -17%; RE007 growth inh: -7%; SARS PLpro yeast: 0%; NS1 inh: 4%

What do the screens show for `O=C(NNc1c(F)c(F)cc(F)c1F)c1cc2ccccc2oc1=O`?
MARV entry inh: 5%[46.1 µM]; LASV entry inh: 8%; 2A StopGo: 56%[activator]; RE007 growth inh: 26%; SARS PLpro yeast: -4%

What do the screens show for `Cc1oc(-c2cccc(Cl)c2)nc1CS(=O)(=O)CC(=O)NCCCN1CCOCC1`?
2A StopGo: -22%; RE007 growth inh: 4%; SARS PLpro yeast: 0%; NS1 inh: 2%

What do the screens show for `COc1ccc(C2=NCc3nnc(C)n3-c3ccc(Cl)cc32)cc1Cl`?
MARV entry inh: inconclusive; LASV entry inh: 0%; 2A StopGo: 0%; RE007 growth inh: 21%; Cruzain Triton: -1.9%; SARS PLpro yeast: 14%; NS1 inh: -7%; Cruzain noTriton: inconclusive

How did O=C(Nc1ccccc1)Nc1ccc(Br)c(Cl)c1 do in these assays?
MARV entry inh: -34%; LASV entry inh: -30%; 2A StopGo: 10%; RE007 growth inh: 0%; Cruzain Triton: -10%; SARS PLpro yeast: -18%; NS1 inh: -32%; Cruzain noTriton: -11%

Results for COc1ccc(CCNC(=O)COC(=O)c2cccn2C)cc1 ?
MARV entry inh: 3%[46.1 µM]; LASV entry inh: -4%[46.1 µM]; 2A StopGo: 3%; RE007 growth inh: -10%; SARS PLpro yeast: -1%

How did Cn1c2c(c(=O)n(C)c1=O)C(c1ccccc1[N+](=O)[O-])CC(=O)N2 (stereo not drawn) do in these assays?
MARV entry inh: 18%[46.1 µM]; LASV entry inh: 20%[46.1 µM]; 2A StopGo: -9%; Cruzain Triton: -1.7%; Cruzain noTriton: 4%

Results for CN(Cc1ccccc1)C(=O)c1nc2ccccn2c1CNCCCOc1cccnc1 ?
2A StopGo: -11%; RE007 growth inh: 4%; SARS PLpro yeast: 2%; NS1 inh: 1%

How did CCC(=O)c1cn(CC(=O)Nc2cc(C)ccc2C)c2ccccc12 do in these assays?
2A StopGo: -7%; RE007 growth inh: 3%; SARS PLpro yeast: -4%; NS1 inh: -4%

What do the screens show for `COc1ccc(-c2noc(-c3ccc(N4CCCCC4)c([N+](=O)[O-])c3)n2)cc1`?
MARV entry inh: 6%[46.1 µM]; LASV entry inh: 11%[46.1 µM]; 2A StopGo: 13%; Cruzain Triton: -2.7%; Cruzain noTriton: -3%

What do the screens show for `COc1ccc(CCNC(=O)c2c(O)c3c([nH]c2=O)CCCC3)cc1OC`?
MARV entry inh: -5%; LASV entry inh: -2%; 2A StopGo: inconclusive; RE007 growth inh: -4%; NS1 inh: 0%

What do the screens show for `NNC(=O)Cn1nc2n(c1=O)-c1ccccc1SC2`?
MARV entry inh: 5%[46.1 µM]; LASV entry inh: 3%; 2A StopGo: -24%; RE007 growth inh: 30%; SARS PLpro yeast: 0%; NS1 inh: 4%

What do the screens show for `Cc1nn(Cc2cccc(F)c2)c(C)c1NC(=O)c1ccc(COc2ccccc2Cl)cc1`?
MARV entry inh: -8%; LASV entry inh: -32%[14.3 µM]; 2A StopGo: inconclusive; RE007 growth inh: 18%; Cruzain Triton: -3.9%; SARS PLpro yeast: 1%; NS1 inh: -2%; Cruzain noTriton: -13%

How did COc1ccc(-n2c(SCC(=O)O)nc3sc4c(c3c2=O)CCC4)cc1 do in these assays?
MARV entry inh: inconclusive; LASV entry inh: -1%; 2A StopGo: -5%; RE007 growth inh: 1%; SARS PLpro yeast: 0%; NS1 inh: 2%

How did CN(C)c1ccc(NC(=O)CSC2=Nc3ccccc3C3=NC(CC(=O)NCc4ccccc4)C(=O)N23)cc1 (stereo not drawn) do in these assays?
LASV entry inh: 10%[46.1 µM]; 2A StopGo: -19%; Cruzain Triton: 3.2%; Cruzain noTriton: 23%

How did COc1ccc(-n2nc3c(c2NC(=O)COc2ccccc2)CS(=O)C3)cc1 (stereo not drawn) do in these assays?
MARV entry inh: 13%; LASV entry inh: 17%; 2A StopGo: -18%; RE007 growth inh: -8%; SARS PLpro yeast: 1%; NS1 inh: 6%

What do the screens show for `CCOC(=O)C1CCN(C(=O)Cn2nc(C)n3c(cc4cc(F)ccc43)c2=O)CC1`?
MARV entry inh: 10%&10%[46.1 µM]; 2A StopGo: -21%&0%; RE007 growth inh: -3%; Cruzain Triton: -0.4%; SARS PLpro yeast: 7%; NS1 inh: -2%; Cruzain noTriton: 0%

How did Cn1cccc1C(=O)NC(=O)COC(=O)c1ccc(S(C)(=O)=O)c([N+](=O)[O-])c1 do in these assays?
MARV entry inh: inconclusive; LASV entry inh: inconclusive; 2A StopGo: 32µM*; RE007 growth inh: -9%; SARS PLpro yeast: -1%

How did CCCC(=O)Nc1ccc(Cl)c(NC(=O)CC)c1 do in these assays?
MARV entry inh: inconclusive; LASV entry inh: 0%; 2A StopGo: -7%; RE007 growth inh: -11%; Cruzain Triton: 4.8%; SARS PLpro yeast: -2%; NS1 inh: -7%; Cruzain noTriton: 4%

Results for O=C(CSc1nccn(-c2ccc(Br)cc2)c1=O)NCc1ccccc1 ?
MARV entry inh: inconclusive; LASV entry inh: -11%; 2A StopGo: -25%; RE007 growth inh: 13%; SARS PLpro yeast: 2%

2 compounds picked at random from those above, as already listed:
How did COc1ccc(-n2nc3c(c2NC(=O)COc2ccccc2)CS(=O)C3)cc1 (stereo not drawn) do in these assays?
MARV entry inh: 13%; LASV entry inh: 17%; 2A StopGo: -18%; RE007 growth inh: -8%; SARS PLpro yeast: 1%; NS1 inh: 6%

How did COc1ccc(-n2c(SCC(=O)O)nc3sc4c(c3c2=O)CCC4)cc1 do in these assays?
MARV entry inh: inconclusive; LASV entry inh: -1%; 2A StopGo: -5%; RE007 growth inh: 1%; SARS PLpro yeast: 0%; NS1 inh: 2%
